# Screening data as filed in PubChem.
# CSC inhib: cancer stem cell viability inhibitors, primary screen, luminescence. AID 2717, 2010. cancer stem cell-like cells viability. actives 1.1% (n = 300,000). inhibition, % at 7.5 µM;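 active means mean at 75% or more and at least half the replicates too; inconclusive means mean and replicates disagree; tested in HMLE shEcad cells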;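 further: 0% = median of negative and 100% = median of positive control wells; the first replicate is given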
# HIV Env fusion: inhibitors of HIV-1 Env-driven cell-cell fusion, primary screen, HeLa-JRFL effector, CEM21 target cells, luciferase; inhibition, % at 12.3 µM; AID 651610, 2012; actives 1.1% (n = 360,000);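 active means mean replicate inhibition score of at least 50 and every replicate individually at or above 50; inconclusive means only one of the two criteria met; inactive means mean below 50 and not all replicates reaching 50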;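 further: 0% = plate neutral controls and 100% = maraviroc near 300 nM; one replicate is shown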
# Rce1 inh: yeast Rce1p protease inhibitors, primary screen, biochemical, fluorescence, cell-free homogeneous; CAAX prenyl protease 2 (Saccharomyces cerevisiae (strain ATCC 204508 / S288c)), Q03530; yeast membranes, quenched prenylated peptide cleavage fluorescence; calls only; actives 0.27% (n = 290,000); AID 2563, 2010;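 active means fall in fluorescence gain of 50% or more versus controls, with final raw signal at or below 3038400; inconclusive means same 50% fall but final raw signal above 3038400; inactive means fall in fluorescence gain under 50%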;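 further: plate controls were neutral control wells for no effect and wells lacking membranes for full effect; tested at 10 µM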
# Target sequence (Q03530 whole entry, looked up): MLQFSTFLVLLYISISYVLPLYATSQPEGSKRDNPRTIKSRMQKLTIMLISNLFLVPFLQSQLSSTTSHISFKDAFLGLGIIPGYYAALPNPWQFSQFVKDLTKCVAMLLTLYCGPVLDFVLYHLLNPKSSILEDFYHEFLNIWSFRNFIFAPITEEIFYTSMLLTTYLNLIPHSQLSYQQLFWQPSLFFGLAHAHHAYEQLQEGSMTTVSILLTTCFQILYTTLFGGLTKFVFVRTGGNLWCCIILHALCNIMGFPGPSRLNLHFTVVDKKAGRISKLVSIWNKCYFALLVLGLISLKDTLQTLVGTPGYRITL
# eIF4H FP inh: human eIF4H binding inhibitors, primary screen, translation initiation inhibitor project, biochemical, uHTS, fluorescence polarization; Eukaryotic translation initiation factor 4H (Homo sapiens), Q15056; eIF4H fluorescence polarization binding assay; inhibition, % at 35 µM; actives 0.94% (n = 290,000); AID 2012, 2009;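 active means 50% or more with normal probe brightness, or confirmed in later tests; inconclusive means above 50% with abnormal brightness, or retests that disagree; inactive means below 50% or failed in later tests; about a fifth of its hits are not listed in these tables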;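 further: calls also rest on retests at 20 µM and on dose response follow-up; 0% = protein and probe with vehicle and 100% = probe without protein; strong numbers were not always called active; many hits fall short of the cut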
# MT1-MMP act inh: blockers of MT1-MMP proenzyme processing, primary screen, HT1080 RFP-PRO-GFP cells, GFP/RFP fluorescence. GFP/RFP ratio fluorescence, overnight; percent of plate control window, DMSO zero. GFP/RFP ratio change, % at 20 µM. actives 0.061% (n = 360,000). AID 651647, 2012;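 active means GFP/RFP ratio change of at least 30% with cell ATP level not reduced by more than half and red fluorescence within 50% of control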; further: strong numbers were not always called active
#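 Material – HT1080 RFP-PRO-GFP cells · Control set – DMSO wells and RFP-L50D-GFP cells · Incubation – overnight cell settling, then overnight compound exposure, 37 °C, 5% CO2 · Compound dosing – single-point 20 µM compound, 1% DMSO · Read-out – GFP/RFP fluorescence ratio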
# UUG fidelity: modulators of yeast start codon fidelity, primary screen, whole organism, S. cerevisiae, single point, plate reader; actives 0.13% (n = 350,000); activity score, % at 18.7 µM; S. cerevisiae UUG-firefly luciferase reporter, luminescence/redox ratio;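 active means replicate mean at a twofold rise or more, about +100% in these data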;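 further: firefly luciferase made from a UUG start codon reports start codon fidelity; reporter light over untreated wells divided by growth signal over untreated wells; some hits fall short of that in this replicate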
# PABP polyA inh: PABP poly(A) RNA binding inhibitors, primary screen, biochemical, fluorescence polarization, uHTS | Polyadenylate-binding protein 1 (Homo sapiens), P11940 | inhibition, % at 35 µM | actives 1% (n = 290,000) | AID 2014, 2009;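 active means 50% or more with normal probe brightness, or confirmed in later tests; inconclusive means above 50% with abnormal brightness, or retests that disagree; inactive means below 50% or failed in later tests; about a fifth of its hits are not listed in these tables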;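 further: calls also rest on retests at 20 µM and on dose response follow-up; controls were probe without protein and protein plus probe with vehicle; some compounds called inactive have numbers as strong as hits; many hits fall short of the cut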
# Target sequence (P11940 whole entry, looked up): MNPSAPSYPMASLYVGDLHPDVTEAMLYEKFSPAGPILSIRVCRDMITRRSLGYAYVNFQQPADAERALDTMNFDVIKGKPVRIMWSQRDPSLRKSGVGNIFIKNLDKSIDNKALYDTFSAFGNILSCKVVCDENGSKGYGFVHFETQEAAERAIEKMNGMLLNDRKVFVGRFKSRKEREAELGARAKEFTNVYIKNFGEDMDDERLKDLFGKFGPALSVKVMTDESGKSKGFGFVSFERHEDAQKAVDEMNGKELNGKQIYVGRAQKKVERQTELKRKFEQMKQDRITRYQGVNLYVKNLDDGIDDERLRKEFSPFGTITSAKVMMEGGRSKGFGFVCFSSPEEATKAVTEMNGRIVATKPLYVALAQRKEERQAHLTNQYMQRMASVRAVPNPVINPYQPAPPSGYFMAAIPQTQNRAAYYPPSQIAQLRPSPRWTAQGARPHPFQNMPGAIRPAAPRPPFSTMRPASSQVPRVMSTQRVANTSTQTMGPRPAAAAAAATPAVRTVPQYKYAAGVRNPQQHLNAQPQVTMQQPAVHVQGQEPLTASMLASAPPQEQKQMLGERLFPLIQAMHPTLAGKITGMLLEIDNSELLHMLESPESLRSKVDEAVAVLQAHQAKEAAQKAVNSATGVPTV
# eIF4H FP inh retest: recorded beside eIF4H FP inh, whose call it bears; inhibition, %; compound at 20 µM; confirmation average;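 mean of two retest wells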
# PABP polyA inh retest: further read-out of PABP polyA inh, marked with its call; inhibition, %; compound at 20 µM; confirmation repeats;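 mean of two retest wells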
# MT1-MMP act inh RFP: also measured in MT1-MMP act inh; calls as there; RFP signal change, %; measured here: RFP expression control read;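 0 = vehicle wells; hits needed this value within 50% of zero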
# * hit, by the source's call; i = inactive; ? = inconclusive; . = no result given.
SMILES,CSC inhib,HIV Env fusion,Rce1 inh,eIF4H FP inh,MT1-MMP act inh,MT1-MMP act inh RFP,UUG fidelity,PABP polyA inh,others
CSCC[C@H](N)C(=O)N1CCC(C(=O)N[C@@H](Cc2c[nH]c3ccccc23)C(=O)O)CC1,-1,14,i,-6,-3,4,-7,7,
CCCc1cc(=O)oc2c(CN3CCOCC3)c(O)ccc12,-6,.,?,4,5,5,-17,2,
CC(Oc1ccc(Br)cc1Br)C(=O)NC1CCCC1 (stereo unspecified),-4,.,.,8,.,.,.,5,
O=S(=O)(Nc1ccc(F)cc1)c1cccc2nsnc12,-14,11,i,-5,-3,-2,-13,11,
COc1ccc(S(=O)(=O)N2CCC(N3CCN(c4ccccc4OC)CC3)CC2)cc1,-9,-10,i,11,4,2,8,17,
CCc1ccccc1Nc1cc(C(=O)NCc2ccccn2)c2ccccc2n1,-2,-8,.,-12,2,1,.,5,
COCC1CCCCN1C(=O)CCCn1nnnc1CN1CCC(C)CC1 (stereo unspecified),12,2,i,-5,1,4,-4,1,
O=C(Nc1nc(-c2ccccc2)cs1)C1CCCCN1S(=O)(=O)c1ccc(Cl)cc1 (stereo unspecified),31,.,i,0,-26,-31,.,6,
O=C(CNC(=O)c1ccc2c(=O)n3c(nc2c1)CCC3)Nc1ccc(F)c(F)c1,5,3,i,.,3,1,-10,.,
COC(=O)c1cccc(NC(=O)c2ccco2)c1,-7,.,i,-10,-3,2,-9,-11,
O=C(CN1CCCCCC1)N1c2ccccc2Sc2ccc(C(F)(F)F)cc21,7,.,i,3,-10,-7,-11,1,
Cc1ccc(N(CCC(=O)O)S(=O)(=O)c2ccccc2)cc1,11,-19,i,-5,5,4,.,-10,
Cc1cc(Cl)ccc1NC(=S)NCc1ccccc1Cl,-11,.,i,-6,2,1,.,11,
Cc1ccc(-n2nc3c(c2NC(=O)C2CC2)CS(=O)(=O)C3)cc1,-11,-11,i,6,4,6,-11,6,
O=C(CN1C(=O)C(=O)c2ccccc21)c1ccc(Cl)cc1,11,-9,i,-9,-1,5,-4,1,
C=CCN=c1scc(-c2ccco2)n1/N=C/c1ccc(O)c(O)c1O,16,-70,i,92*,-8,-12,.,42*,eIF4H FP inh retest=91*;PABP polyA inh retest=73*
O=C(COC(=O)c1ccccc1[N+](=O)[O-])c1ccc2c(c1)OCO2,-12,-40,i,.,5,5,-94,.,
CCCCC#Cc1cncc(C(=O)N/N=C/c2cccc(OC)c2)c1,14,13,i,4,-2,4,.,3,
CCc1noc(C)c1C(=O)Nc1nnc(C(CC)CC)s1,-6,10,.,.,5,0,-16,.,
Cc1cccc(NC(=S)N2CCN(S(=O)(=O)c3ccccc3)CC2)c1,6,-11,i,-5,-1,3,-6,-3,
Nc1ccccc1C(=O)N1CCc2ccccc21,-10,-11,i,-9,0,4,-9,2,
Cc1onc(-c2ccccc2)c1C(=O)NNC(=S)NC(=O)c1ccc(Cl)cc1Cl,-1,11,i,16,4,3,.,-2,
Cc1ccc(Cn2c(N/N=C/c3ccncc3)nc3c2c(=O)n(C)c(=O)n3C)cc1,-15,-15,i,3,3,-5,-3,-6,
Cc1cc(Cl)ccc1OCC(=O)NCCOC(=O)Nc1sc(=S)n(C)c1C,-10,24,i,-5,1,-9,.,7,
CC1=C(C(=O)OC(C)C)C(c2cccnc2)C2=C(CCCC2=O)N1 (stereo unspecified),-8,-17,i,-5,3,4,-15,-2,
Cc1cc(S(=O)(=O)Nc2c(C)ccc3nsnc23)ccc1F,0,.,i,-3,0,1,-8,-1,
COCCNCc1ccccc1[N+](=O)[O-],3,13,.,.,0,-1,-18,.,
C/C(=N\NC(=O)c1ccc2c(c1)OCO2)c1ccco1,0,11,i,-4,-4,-2,-23,0,
Cc1ccc(S(=O)(=O)N2CCOCC2)cc1NC(=O)CN(C)CC(=O)Nc1cccc(F)c1,.,-1,.,.,4,-3,2,.,
CC(C)(C)c1ccc(OC(=O)c2ccc3snnc3c2)cc1,-7,19,i,-2,2,-2,.,7,
COc1cc2sc3ccc(-c4ccc5[nH]ccc5c4)cc3c(=O)c2cc1OC,31,-110,i,.,15,3,-8,.,
COC1C(C)=C(C)C(=O)N1Cc1ccccc1 (stereo unspecified),-5,-3,i,-8,3,3,-12,-1,
Cc1ccc2c(CC(=O)NCC(C)(C)N3CCOCC3)coc2c1,-3,4,i,9,-1,5,5,-9,
COc1ccc(CC(=O)OCc2nnc(C3COc4ccccc4O3)o2)cc1OC (stereo unspecified),-3,-31,i,2,-6,-2,0,-6,
CCCn1c(Nc2ccccc2C)nc2ccccc21,-1,-35,i,-6,-6,-4,-15,4,
O=C(NCc1ccncc1)C1CCCCC1,-5,-63,i,-2,-7,2,-11,-8,
Cc1ccc(S(=O)(=O)N2CCCN(c3nccc(C(F)(F)F)n3)CC2)cc1,1,18,i,5,5,0,1,4,
Cc1ccccc1N1C(=O)CN(Cc2sccc2C)C1=S,10,15,i,-2,6,7,0,-1,
Cc1oc(-c2ccccc2)nc1C(=O)OCC(=O)NC(C)c1ccccc1 (stereo unspecified),.,-41,.,.,-4,-1,-15,.,
CCCCNC(=O)N1CCC(CCC(=O)N(C)Cc2ccccc2)CC1,-3,10,i,4,1,0,-10,12,
CCCCn1c(N)c(N(CCC(C)C)C(=O)C2CC(=O)N(c3cccc(SC)c3)C2)c(=O)[nH]c1=O (stereo unspecified),-10,-3,i,.,-4,-2,-2,.,
CCc1ccccc1NC(=O)NC(C)c1ccc2c(c1)OCO2 (stereo unspecified),18,-6,i,-11,-1,4,-2,-1,
CCCCC(=O)Nc1ccc(NC(=S)NC(=O)c2ccco2)cc1OC,2,8,i,-7,0,-2,-12,1,
O=C(NCc1nnc(SCC(=O)N2CCOCC2)o1)c1cccs1,-4,5,i,0,0,6,.,13,
CCCOc1ccc(OCCN2CCCC(C)C2)cc1 (stereo unspecified),29,-53,i,2,2,4,.,2,
CCCc1ccc(Oc2c(-c3ccc(O)c(C)c3O)n[nH]c2C)cc1,100*,-45,i,0,4,1,-22,-3,
CCOC(=O)c1ccc(N=Nc2c(C)c(C#N)c(O)[nH]c2=O)cc1,3,-41,i,90,1,5,.,12,eIF4H FP inh retest=-3;PABP polyA inh retest=5
COc1ccc2[nH]c(C(=O)O)c(NS(=O)(=O)c3ccc(C)cc3C)c2c1,-5,-12,i,6,-1,4,-17,10,
COc1ccc(OC)c(S(=O)(=O)Nc2cccc(-c3ccc(N4CCCCCC4)nn3)c2)c1,35,-15,i,-12,2,-13,-14,4,
Cc1c(C(=O)NC2CCN(Cc3ccccc3)C2)oc2c(Cl)cccc12 (stereo unspecified),-15,9,i,-10,-1,2,-8,7,
Cc1ccc(C(=O)O/N=C(\N)c2ccccn2)cc1,17,62*,i,-3,1,2,-94,-5,
Cc1cccc(OCC(=O)NNC(=O)CCc2ccccc2)c1,.,0,i,-5,2,5,.,-2,
CCOC(=O)N1CCN(C(=O)C2CCC(=O)N(Cc3ccccc3OC)C2)CC1 (stereo unspecified),.,-10,.,.,-3,3,-16,.,
Cc1oc2c(c1C(=O)c1ccccc1)C(=O)C(=O)c1ccccc1-2,98*,.,i,3,5,-4,-41,17,
COc1ccc(CNC(=O)C2CSCCS2)cc1 (stereo unspecified),5,-43,i,-1,4,7,-30,0,
O=S(=O)(NCCC1=CCCCC1)c1cccc(S(=O)(=O)N2CCOCC2)c1,.,3,i,-7,5,-9,-3,2,
Cc1c(NC(=O)c2cc(-c3ccc(O)cc3)on2)c(=O)n(-c2ccccc2)n1C,-3,-6,i,-15,3,-3,5,-2,
O=C(Nc1ccccc1-c1nnc(SCc2ccccc2Cl)o1)c1ccccc1,33,-112,i,7,-2,-3,-12,-2,
COC(=O)c1ccccc1NC(=O)Nc1c(C)n(C)n(-c2ccccc2)c1=O,-12,-3,i,1,-5,0,-4,0,
O=C(/C=C/c1ccc(Cl)c(C(F)(F)F)c1)N1CCN(c2ccccn2)CC1,27,6,i,-1,0,0,-10,3,
# Continuation.
SMILES,CSC inhib,HIV Env fusion,Rce1 inh,eIF4H FP inh,MT1-MMP act inh,MT1-MMP act inh RFP,UUG fidelity,PABP polyA inh,others
COc1ccc(N(C(=O)c2ccncc2)S(=O)(=O)c2cccc([N+](=O)[O-])c2)cc1,-10,-8,i,-7,-1,-4,-1,12,
O=C(CN1CCN(Cc2ccccc2)CC1)Nc1ccc(Cl)cc1,11,8,i,-10,-1,2,-6,5,
O=C(NC(=S)NCCCN1CCOCC1)c1ccc(Br)cc1,-10,-9,i,10,1,-4,.,-5,
Cc1cc(NC(=O)CCCSc2nc(-c3ccco3)cc(C(F)(F)F)n2)n(-c2ccccc2)n1,9,.,i,9,-2,-6,6,-5,
O=C(COc1ccc2ccccc2c1)N1CCN(C(=O)c2cccnc2)CC1,-1,5,i,-4,6,3,-8,-8,
CCOC(=O)C1=C(C)Nc2ccc(C)cc2S1,10,-110,i,4,10,8,-36,-9,
N#CN=C1CCCCCN1CC(N)=O,11,-14,i,-5,-8,1,-16,0,
Nc1nc(CN2CCN(Cc3ccc4c(c3)OCO4)CC2)nc(Nc2ccccc2)n1,-12,-42,i,11,-4,-7,-21,-4,
C=CCn1c(SCC(=O)N2CCN(C(=O)c3ccco3)CC2)nc2sc(CC)cc2c1=O,.,.,i,-2,1,-2,-3,-9,
COc1ccc(CNC(=O)c2ccc(N3CCC4(CC3)CC(c3ccc(Cl)cc3)=NO4)c([N+](=O)[O-])c2)cc1,3,-3,i,.,3,-28,-2,.,
COc1ccccc1/C=N\NC(=O)c1c(C)nc2ccc(Cl)cn12,-8,3,i,4,-3,-1,-20,8,
C=CCCC(=O)N1C[C@H]2CCN(C)[C@H]2C[C@H]1c1ccccc1,.,-7,.,.,2,3,6,.,
CC(C)(C)c1ccc(C(=O)N2CCC2(C)C(=O)Nc2cccc(C#N)c2)cc1 (stereo unspecified),.,-5,.,.,-4,-20,3,.,
Cc1oc(C(C)(C)C)cc1-c1cc(NC(=O)c2ccc([N+](=O)[O-])cc2)n[nH]1,4,10,i,-13,3,-6,.,-5,
Cc1ccc(-n2c(=O)c3sccc3n(CC(=O)NC3CCCCC3)c2=O)cc1,12,6,i,-8,2,0,-12,-5,
CN1CCN(C2CN(Cc3ccccc3)S(=O)(=O)C2)CC1 (stereo unspecified),.,-10,.,.,4,7,-8,.,
CC(C)CNC(=O)c1cc(-c2ccco2)on1,-8,.,i,-7,2,-1,-27,-6,
CS(=O)(=O)N1CCN(c2ccc(NC(=O)C(c3ccccc3)c3ccccc3)cc2)CC1,0,.,i,-3,1,0,-9,-11,
O=C1C(=O)c2ccccc2C([O-])=C1[n+]1ccccc1,.,-20,i,1,-8,2,-11,-6,
Cc1cc(C)cc(NS(=O)(=O)c2ccc3[nH]c(=O)[nH]c3c2)c1,-9,-53,i,-4,2,-3,1,0,
